Compound activity from PubChem.
RecA splice inh – Mtb RecA intein splicing inhibitors, primary screen, biochemical, fluorescence, HTS | Protein RecA (Mycobacterium tuberculosis (strain ATCC 25618 / H37Rv)), P9WHJ3 | cell-free RecA intein splicing | inhibition, %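 (about 9 µM by stock and volumes)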 | hit rate 0.75% among 290,000; in the data active = inhibition above about 30%; inconclusive = no clear call, values can overlap the other calls;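 also: 0% = vehicle wells and 100% = reference inhibitor control wells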
Target sequence (P9WHJ3 whole entry, looked up, canonical isoform): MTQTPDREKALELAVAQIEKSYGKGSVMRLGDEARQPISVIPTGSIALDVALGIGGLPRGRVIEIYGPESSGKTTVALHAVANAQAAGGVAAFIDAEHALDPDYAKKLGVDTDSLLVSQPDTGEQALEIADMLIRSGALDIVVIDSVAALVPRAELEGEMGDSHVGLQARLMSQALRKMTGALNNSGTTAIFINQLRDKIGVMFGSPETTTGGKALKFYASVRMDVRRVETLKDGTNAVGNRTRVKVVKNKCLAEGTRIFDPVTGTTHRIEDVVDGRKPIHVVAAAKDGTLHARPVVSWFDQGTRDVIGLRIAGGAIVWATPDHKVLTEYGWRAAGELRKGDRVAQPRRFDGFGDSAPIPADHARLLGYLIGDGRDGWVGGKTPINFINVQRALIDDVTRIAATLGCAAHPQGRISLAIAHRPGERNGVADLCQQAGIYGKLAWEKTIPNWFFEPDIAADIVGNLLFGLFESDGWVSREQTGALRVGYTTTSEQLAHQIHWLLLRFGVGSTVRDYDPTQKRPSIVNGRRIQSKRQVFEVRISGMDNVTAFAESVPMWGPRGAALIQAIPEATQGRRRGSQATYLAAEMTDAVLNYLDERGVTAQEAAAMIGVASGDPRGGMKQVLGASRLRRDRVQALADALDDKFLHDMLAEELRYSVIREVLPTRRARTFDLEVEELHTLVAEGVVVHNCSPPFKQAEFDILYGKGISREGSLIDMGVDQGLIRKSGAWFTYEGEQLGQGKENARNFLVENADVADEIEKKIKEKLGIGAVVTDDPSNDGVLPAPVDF
YopH inh – YopH tyrosine phosphatase inhibitors, primary screen, biochemical, fluorescence Ex485/Em525. hit rate 0.16% among 140,000. inhibition, %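 (about 10 µM by stock and volumes)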. YopH tyrosine phosphatase [Yersinia enterocolitica];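 active = inhibition of 50% or more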;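 also: controls were vehicle for no effect and minimum signal wells for full effect; inactives centre near -20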
Arbovirus inh – antivirals against arbovirus infection, primary screen, cell-based, full library, 10K replicate subset; hit rate 0.37% among 200,000; inhibition, % at 10 µM; arbovirus infection cell-based antiviral screen;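 active = inhibition from about 30%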;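 also: bluetongue infection of BSR cells; cell survival read as ATP light after 72 h; 0% = infected wells without compound and 100% = uninfected wells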
Mtb bLac sens – beta-lactam sensitization of Mtb H37Rv, H37Rv; M. tuberculosis H37Rv growth with meropenem, percent inhibition; hits of this screen are not shown here; inhibition, % at 25 µM; hit rate 0.27% among 330,000; AID 434955, 2010;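 active = about 74% or more and at least 40 points above the plate without the antibiotic, then above 30% in a dose series; inconclusive = first-round hits that could not be retested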;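 also: growth measured after seven days incubation then overnight dye step; 0% = bacteria only wells and 100% = bacteria with antibiotic; twin plates without the antibiotic show which effects depend on it; some results filed as inactive read as strong as hits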
Mtb growth – M. tuberculosis H37Rv growth inhibitors, H37Rv strain (AID 1626); inhibition, % at 10 µM; hits with a dose series show IC50 in µM; hit rate 0.95% among 220,000; M. tuberculosis H37Rv growth inhibition; higher % means a stronger effect;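 active = confirmed in a dose series; inconclusive = inhibition above 80% but not taken into the dose series; inactive = below 80% or under 30% at every dose of the series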;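 also: bacteria incubated seven days before Alamar blue readout; 0% = bacteria only wells and 100% = bacteria with antibiotic wells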
Arbovirus inh repeat – also measured in Arbovirus inh; calls as there; inhibition, %; measured here: 10K subset replicate screen; many hits read low in the repeat;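 first of two repeat runs on a subset; 0% = infected and 100% = uninfected wells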
The depositor's hits bear a star; ? = inconclusive; / = not tested or not shown.

SMILES | RecA splice inh | YopH inh | Arbovirus inh | Mtb bLac sens | Mtb growth | others
O=C(CN(c1ccccc1)S(=O)(=O)c1ccccc1)N/N=C/c1ccc(OC2CSC2)cc1 | -0.8 | -22 | -10 | 1 | 3%
CSc1cc(-c2ccccc2)n(C)c(=O)c1C#N | 0.9 | / | 9 | -2 | -8%
COc1ccc(/C=N\N=C2/SC(CC(=O)O)C(=O)N2c2ccc(O)cc2)cc1 (configuration not stated) | / | -19 | -3 | -3 | -12%
COc1ccc(C(=O)COC(=O)Cn2cnc3c2c(=O)n(C)c(=O)n3C)c(OC)c1 | 2.0 | / | / | 2 | /
O=C(NCc1cnc2ccccn12)C1CCC(=O)N(Cc2cccc(F)c2)C1 (configuration not stated) | -1.3 | / | / | -11 | /
CCN(CC)CCn1c(NCc2cc(OC)ccc2OC)nc2ccccc21 | -2.2 | -15 | -2 | 3 | /
Cc1onc(-c2ccccc2)c1-c1nc2ccccc2c(=O)o1 | 32* | -19 | 2 | 10 | 4%
CC(Nc1ccc(Cl)c(Cl)c1)C(=O)NN (configuration not stated) | 1.2 | / | / | 3 | 0%
Cc1ccc2c(CN3CCN(CCO)CC3)cc(=O)oc2c1C | -0.2 | -6 | -4 | -5 | 2%
CCN(CC)CCCNC(=O)CSc1nc(-c2ccc(F)cc2)cc(C(F)(F)F)n1 | 3.5 | / | -16 | -10 | -8%
COc1ccc(C(=O)O)cc1NC(=S)NC(=O)Cc1ccc(Cl)cc1 | 3.6 | / | / | 74 | /
COc1cccc(CC2(CO)CCN(S(=O)(=O)c3ccc(OC)cc3OC)CC2)c1 | 6.0 | / | / | -4 | /
CCSc1ccc(/C(N)=N/OC(=O)c2cccs2)cn1 | 1.2 | / | / | -18 | /
O=C(N/N=C/c1cccc2ccccc12)c1ccccc1Cl | 5.8 | / | / | 5 | /
CC1CCCN(CCCOc2ccc([N+](=O)[O-])cc2)C1 (configuration not stated) | 0.0 | -1 | -3 | -6 | 8%
CCCCn1c(-c2cc(Cl)ccc2OC)n[nH]c1=S | -1.2 | -35 | 8 | 2 | -5%
CC1Cc2ccccc2N1C(=O)CSc1nnc(-c2ccc(S(=O)(=O)N3CCOCC3)cc2)n1C (configuration not stated) | -0.8 | -6 | -6 | -2 | -6%
COC(=O)c1cc(C)sc1NC(=O)c1cccnc1 | 0.3 | 33 | -4 | 10 | 5%
CCOc1cc(C(=S)N2CCN(C)CC2)ccc1OCC(=O)N1CCCC1 | -3.0 | / | / | -6 | /
CC1CCCN(C(=O)c2ccc3c(c2)OCO3)C1 (configuration not stated) | -0.8 | / | / | ? | /
Cc1cc(C(F)F)n2nc(C(=O)Nc3sc4c(c3C#N)CCC4)nc2n1 | 0.8 | -26 | 2 | 5 | -11%
CC1CCCC(C)N1c1nnc(N)s1 (configuration not stated) | -1.7 | 26 | 1 | -3 | / | Arbovirus inh repeat=-1
Cc1ccc(S(=O)(=O)NCCC(=O)Nc2nccs2)cc1 | -0.1 | / | 14 | -7 | 8%
O=C(NCC1CCCO1)/C(=C\c1ccco1)NC(=O)c1ccccc1 (configuration not stated) | -2.2 | 8 | 1 | 0 | -5%
N#C/C(=C(/O)COC(=O)Cc1c[nH]c2ccccc12)c1nc2ccccc2[nH]1 | -0.4 | -40 | -17 | 16 | 2%

Further structures follow.
SMILES | RecA splice inh | YopH inh | Arbovirus inh | Mtb bLac sens | Mtb growth | others
CC(=O)Oc1cc2c(cc1Cl)C1(CC(c3ccccc3Cl)O2)CC(C)(C)NC(=S)N1 (configuration not stated) | 45* | -5 | -52 | 74 | 77%
Cc1ccc(S(=O)(=O)Nc2ccc(NC(=O)CN3CCCCC3)cc2)cc1 | -0.1 | -28 | -12 | -7 | -9%
COCCC1CCCCN1C(=O)c1ccc2nc(Cc3ccccc3F)oc2c1 (configuration not stated) | 2.6 | / | / | 14 | /
COc1ccc(S(=O)(=O)N2CCN(Cc3ccccc3[N+](=O)[O-])CC2)cc1 | 1.3 | / | / | -15 | /
Cc1nn(CC(=O)OCCOc2ccc(Br)cc2)c(C)c1[N+](=O)[O-] | 1.7 | / | 61* | -4 | -2%
Fc1ccc2nc(N3CCCCC3)sc2c1 | 0.5 | -25 | -6 | -4 | -7%
CC(C)NC(=O)NC(=O)COc1ncnc2sccc12 | -3.6 | -24 | -1 | -7 | 1% | Arbovirus inh repeat=1
O=C(Cc1c(F)cccc1Cl)Nc1nc2ccccc2s1 | 5.3 | / | -6 | 25 | 7%
CCCCC(=O)Nc1ccc(N2CCCC2)cc1 | -0.4 | -7 | / | 11 | 9%
CCCCC(=O)Nc1ccc(C(=O)NCCCn2ccnc2)cc1 | -0.8 | -1 | 15 | -3 | 2%
COc1ccc(CNC(=O)COc2ccc(S(=O)(=O)NC(C)C)cc2)cc1 | 1.8 | 5 | 0 | 1 | 9%
CCCCCCCC[n+]1cccc(C(=O)N(CC)CC)c1 | -2.2 | -14 | 5 | -4 | 19%
Cc1nc(NS(=O)(=O)c2ccc(Cl)s2)c2c3c(sc2n1)CCCC3 | 7.8 | / | / | -12 | -11%
O=C(O)C1CCCN(C(=O)NCc2ccccc2)C1 (configuration not stated) | 2.1 | -28 | 8 | ? | -7%
Cc1cc(C(=O)Nc2cccc(O)c2)c(C)o1 | 0.9 | 32 | 8 | -7 | 2%
O=C1CCCc2ccccc2N1Cc1ccc(Cl)cc1Cl | 11 | -16 | -9 | 2 | -5%
COc1cc(NC(=S)NCCC(c2ccccc2)c2ccccc2)c(OC)cc1Cl | 11 | -28 | 14 | 4 | 9%
COCCN(C(=S)Nc1ccc(C(C)C)cc1)C(C)c1cccs1 (configuration not stated) | 5.2 | / | 15 | 10 | 2%
COc1ccc(NC(=O)Nc2ccc(C(=O)N3CCOCC3)cc2)cc1 | 3.0 | 4 | 1 | -9 | 4%
O=S(=O)(c1ccc(F)cc1)c1nc(-c2ccco2)oc1Nc1ccc(F)cc1 | 4.5 | -16 | 1 | -4 | -6%
Cc1ccc(S(=O)(=O)NCCC(=O)N2CCC(Cc3ccccc3)CC2)cc1 | -2.5 | / | / | 0 | /
COc1ccc(C/C(N)=N/OC(=O)CCc2ccccc2)cc1 | -0.1 | / | / | 3 | /
CCOC(=O)c1ccccc1NC(=O)c1cccc(F)c1 | 3.6 | -12 | -1 | 9 | 3%
O=C1C2=C(CCCC2)C(=O)N1c1cccc(OCCBr)c1 | 4.7 | -19 | 4 | 57 | 8%
O=P(Oc1ccccc1)(Oc1ccccc1)c1ccccc1 | / | / | / | 3 | 18%

(next part)
SMILES | RecA splice inh | YopH inh | Arbovirus inh | Mtb bLac sens | Mtb growth | others
COc1ccc(C)cc1N(C(=O)CNC(=O)c1ccco1)C(C(=O)NC1CCCC1)c1cccnc1 (configuration not stated) | 2.2 | -43 | -2 | 3 | -9%
COc1cc(CNn2cnnc2)ccc1OCC(=O)NC(C)(C)C | -0.1 | -19 | -2 | 4 | -12%
COc1cccc(OCCn2cc(C(=O)c3ccco3)c3ccccc32)c1 | 11 | -24 | 6 | 27 | 25%
CCc1noc(C)c1C(=O)Nc1ccccc1N1CCOCC1 | -2.0 | / | / | -7 | /
CCC(C)(C)NC(=O)CN(CC1CCCO1)C(=O)CNS(=O)(=O)c1ccccc1 (configuration not stated) | -0.9 | / | / | 6 | /
CC(Sc1nc(N(C)C)nc(N2CCOCC2)n1)C(=O)Nc1ccccc1 (configuration not stated) | 6.8 | -12 | 3 | 4 | -3%
Cc1cc(CNC(=O)c2ccc3c(c2)OCO3)c2ccccc2n1 | -7.6 | / | -11 | -4 | 4%
CCOC(=O)c1[nH]c(C)c(C(=O)N2CCN(c3cccc(Cl)c3)CC2)c1C | -0.9 | -18 | -9 | 27 | 5%
CCCCN(C(=O)c1ccc(S(=O)(=O)N2CCOCC2)cc1)C1CCS(=O)(=O)C1 (configuration not stated) | -2.5 | / | / | -1 | /
COc1ccc(CC(=O)Nc2ccc(N3CCOCC3)cc2)cc1OC | 2.1 | / | / | -3 | -10%
CCn1cc(CN2CCCC(CNS(=O)(=O)Cc3ccccc3)C2)cn1 (configuration not stated) | 1.2 | / | -2 | 3 | -7%
CC(C(=O)Nc1nc2ccccc2[nH]1)N1C(=O)C2CC=CCC2C1=O (configuration not stated) | -1.3 | -41 | 8 | 82 | 3%
COc1ccc(C=C2C(=O)N(C)C(=O)N(C)C2=O)cc1COc1ccc(NC(C)=O)cc1 | 0.1 | / | / | 0 | -16%
Cc1ccc(-c2csc3ncnc(SCC(=O)NCc4ccc5c(c4)OCO5)c23)cc1 | -1.5 | -17 | -10 | 18 | -3%
Cc1ccn2c(=O)nc(SCC(=O)NC3CCCCC3)nc2c1 | 0.2 | / | / | -2 | /
COC(=O)c1nc(N)sc1C | 0.7 | / | 5 | 4 | 0%
Cc1c(Cl)c([N+](=O)[O-])nn1CCCC(=O)Nc1cc(Cl)ccc1Cl | -4.4 | 1 | 4 | 4 | 6%
Cc1cccc(Nc2nc(-c3ccc4c(c3)OCCO4)cs2)c1 | 2.9 | -1 | -16 | -1 | 9%
C=CCSc1nc2c(C(=O)OCC)nnn2c2ccccc12 | 5.4 | / | / | 1 | /
CC[n+]1ccc(/C=C/c2ccc(N(C)C)cc2)c2ccccc21 | / | / | -25 | / | 5%
Cc1ccccc1N(CC(=O)NC(C)(C)C)C(=O)CS(=O)CC(=O)Nc1ccc2c(c1)OCO2 (configuration not stated) | 1.5 | / | 0 | -4 | 1%
COc1ccc(C2NC(=S)NC(O)(C(F)(F)F)C2C(=O)c2cccs2)cc1 (configuration not stated) | -0.6 | -16 | 0 | 2 | -3%
COc1c(C(=O)NNC(=O)c2ccccc2)csc1Br | / | / | / | -5 | -14%
C=CCn1c(SCC(=O)c2c(N)n(C)c(=O)n(C)c2=O)nc2sc(C)c(C)c2c1=O | / | -22 | 4 | 5 | 4%
CCC1(c2ccc(F)cc2)NC(=O)N(CC(=O)Nc2ccccc2Cl)C1=O (configuration not stated) | 2.3 | / | / | -1 | /

As a working copy, part of the list above:
SMILES | RecA splice inh | YopH inh | Arbovirus inh | Mtb bLac sens | Mtb growth | others
COc1ccc(C)cc1N(C(=O)CNC(=O)c1ccco1)C(C(=O)NC1CCCC1)c1cccnc1 (configuration not stated) | 2.2 | -43 | -2 | 3 | -9%
COc1cc(CNn2cnnc2)ccc1OCC(=O)NC(C)(C)C | -0.1 | -19 | -2 | 4 | -12%

Next part:
SMILES | RecA splice inh | YopH inh | Arbovirus inh | Mtb bLac sens | Mtb growth | others
COC(=O)c1cc2occc2n1Cc1cccc(C)c1 | 2.5 | / | -5 | 7 | 5%
CC(C)NC(=S)N1CCN(S(=O)(=O)c2cccc(C(F)(F)F)c2)CC1 | -3.2 | -18 | 12 | -2 | 0%
Cn1c(=O)n(C)c2cc(/C=N/NC(N)=S)ccc21 | 2.5 | / | -5 | 70 | 0%
CN(c1ccccc1C(=O)Nc1cccnc1)S(C)(=O)=O | -1.0 | -15 | 0 | -12 | -7%
O=C(NCN1CCOCC1)c1cnccn1 | 3.5 | / | / | 0 | /
O=C(CCCc1ccccc1)NCc1ccc(F)cc1 | 1.3 | -18 | -4 | 3 | -2%
O=C(CCCN1C(=O)c2ccccc2C1=O)Nc1ccccc1C(=O)N1CCOCC1 | -1.0 | -29 | -3 | -8 | -6% | Arbovirus inh repeat=6
O=[N+]([O-])c1ccc(Cl)c(S(=O)(=O)Nc2cccc(-c3ccc(N4CCOCC4)nn3)c2)c1 | 1.3 | / | / | -2 | /
COc1ccc(CCn2c(S)nc3ccccc3c2=O)cc1 | -1.1 | / | / | 14 | /
CCOc1ccc(NC(=O)CN(C)C(=O)c2cccnc2Sc2ccc(C)c(C)c2)cc1OCC | -6.8 | / | / | ? | /
CCOC(=O)CC1COc2ccccc2N1C(=O)c1ccc(F)cc1 (configuration not stated) | / | / | 1 | -9 | -1%
COc1ccc(CN2CC(=O)N(c3ccc(C)cc3)C2=S)cc1OC | -2.6 | -16 | -6 | -2 | -2%

Random excerpt: six compounds from above
SMILES | RecA splice inh | YopH inh | Arbovirus inh | Mtb bLac sens | Mtb growth | others
O=[N+]([O-])c1ccc(Cl)c(S(=O)(=O)Nc2cccc(-c3ccc(N4CCOCC4)nn3)c2)c1 | 1.3 | / | / | -2 | /
CN(c1ccccc1C(=O)Nc1cccnc1)S(C)(=O)=O | -1.0 | -15 | 0 | -12 | -7%
O=C(CCCN1C(=O)c2ccccc2C1=O)Nc1ccccc1C(=O)N1CCOCC1 | -1.0 | -29 | -3 | -8 | -6% | Arbovirus inh repeat=6
COc1ccc(CCn2c(S)nc3ccccc3c2=O)cc1 | -1.1 | / | / | 14 | /
CC(C)NC(=S)N1CCN(S(=O)(=O)c2cccc(C(F)(F)F)c2)CC1 | -3.2 | -18 | 12 | -2 | 0%
O=C(NCN1CCOCC1)c1cnccn1 | 3.5 | / | / | 0 | /

This is a subset. The share of hits here may be higher or lower than overall.
